Rango-impB inh: prevents formation of the Rango-importin beta complex; Q14974; Rango CFP/YFP FRET sensor + importin beta, 45 min; Potency, µM (series often up to 92.2 µM), inactives show at the highest dose inhibition of complex formation; 340,000 compounds, 0.031% hits; AID 540263; active = rising FRET ratio curve, often small or poorly fitted; inconclusive = mostly compound fluorescence or quenching in the first reads; inactive = flat curves in all reads;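 further: potency means the concentration at half of the fitted maximal effect; 0% = DMSO wells and 100% = buffer wells lacking importin beta; nearly all actives have a fitted effect of over 15% in size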
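FRET biosensor (snurportin 1 IBB flanked by EYFP and cerulean), 50 nM, with compound 5 min, then 0.125 microM importin beta in PBS, 1 mM DTT, 0.02% Tween-20, 0.1% BSA. CFP/YFP ratio read after 45 min at room temperature; pre-read flags interference.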
Rango dissoc inh: prevents RanGTP from dissociating the Rango-importin beta complex; O95149+P62826; Biochemical FRET Rango-importin beta, RanGTP-induced dissociation; Potency, µM (highest dose often 46.1 µM), for inactives: at the highest dose activity change, negative = inhibition; 340,000 compounds, 0.071% hits; active means falling FRET ratio curve, often poorly fitted, with flat reads before Ran was added; inconclusive means other falling curves, or compound fluorescence or quenching; inactive means flat or rising ratio curve;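 further: potency means the concentration at half of the fitted maximal effect; % of control where 0% means no effect; nearly all actives have a fitted effect of over 45% in size; -100% = wells without RanGTP and RCC1; the record marks most hits as doubtful in a second field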
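Quantitative HTS using a FRET biosensor: 0.1 uM Rango, 0.25 uM importin beta, 0.6 uM Ran, 2 mM GTP, 0.2 uM RCC1 final, PBS with DTT, Tween-20 and BSA. Post-read taken 45 min after Ran addition.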
GLA inh pH 4.5: inhibitors of human alpha-galactosidase A at pH 4.5 | P06280 | purified enzyme, 4-MU-alpha-Gal fluorescence, pH 4.5 | activity change, negative = inhibition, % at 105 µM | 230,000 tested, under 10 active | AID 1467; inconclusive = small, poorly fitted or top-dose-only inhibition, or a rising curve; inactive = flat fitted curve, though single readings scatter; no compound was filed as active;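 further: 0% = full activity with enzyme and -100% = basal without enzyme; dose as in the result columns while the protocol names 77 µM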
Target sequence (P06280 whole entry, looked up): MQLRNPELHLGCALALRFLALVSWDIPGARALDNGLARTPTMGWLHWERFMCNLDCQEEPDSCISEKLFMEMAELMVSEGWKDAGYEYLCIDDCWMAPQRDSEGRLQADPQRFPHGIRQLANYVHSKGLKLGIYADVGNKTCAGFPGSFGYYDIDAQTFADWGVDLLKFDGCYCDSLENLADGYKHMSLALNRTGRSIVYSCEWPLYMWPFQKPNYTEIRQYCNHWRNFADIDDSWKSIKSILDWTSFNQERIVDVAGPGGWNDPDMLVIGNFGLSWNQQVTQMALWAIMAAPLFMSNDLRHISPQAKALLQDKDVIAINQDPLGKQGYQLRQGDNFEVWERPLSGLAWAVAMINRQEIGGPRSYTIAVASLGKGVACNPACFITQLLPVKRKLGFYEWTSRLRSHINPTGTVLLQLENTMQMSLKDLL
miR-21 FLuc: miR-21 reporter, rising signal. 340,000 tested, under 10 active. Potency, µM (series often up to 38.3 µM), for the others: top-dose reporter change, positive = more light. AID 2288. HeLa miR-21 FLuc reporter, luciferase, 48 h; active = well fitted rising curve with a large enough effect; inconclusive = small, poorly fitted or top-dose-only effect; inactive = no such curve, though single readings can be large or run the other way;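 further: % of control where 0% means no effect; miR-21 action dims this reporter so a rising signal means less miR-21 action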
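Luminescence from a firefly luciferase reporter carrying a miR-21 binding site downstream, stably expressed under a CMV promoter in HeLa cells that make miR-21 endogenously, reports miRNA modulation after 48 h compound exposure up to approximately 40uM final.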
Active calls of the source: *; ? = inconclusive; . = not tested or not shown; & = joins results of further samples; [ ] = dose if it differs, or a comment. An excerpt; count on the stated rates, not on these rows.

Rango dissoc inh | Rango-impB inh | mol | GLA inh pH 4.5 | miR-21 FLuc
-17% | -3.0% | COc1cc2cc(CN(CCc3ccccc3C)C(=S)NCCCN3CCOCC3)c(=O)[nH]c2cc1OC | 1 | -8%
-17% | 3.1% | COc1ccc(-n2cc(CNCCc3cscn3)c(-c3ccccc3Cl)n2)cc1 | -3 | 5%
-2% | -1.8% | Cc1cc(NC(=O)COC(=O)c2ccc(S(=O)(=O)C(F)F)cc2)n(-c2ccccc2)n1 | . | .
0% | 2.2% | O=C(Nc1ccc2nc(-c3cccnc3)[nH]c2c1)c1ccccc1F | 1 | -15%
-13% | 4.3% | O=C(C(c1ccccc1)c1ccccc1)N1CCN(c2ccccn2)CC1 | -8[21.1 µM] | -3%
0% | 0.8% | O=C(O)/C=C\C(=O)Nc1ccc(N2CCN(c3ccc(Cl)cc3)CC2)cc1 | -1 | 1%
-2% | 1.6% | Oc1ccc(-c2nccc(-c3ccc(F)cc3)n2)cc1 | . | -58%
-7% | -0.3% | Cc1ccc(S(=O)(=O)NC(=O)Nc2ccc(Cl)cn2)cc1 | 0 | -4%
-7% | -0.8% | Nc1nnnn1/N=C/c1ccccc1C(F)(F)F | 2 | -15%
? | ? | COc1ccc(/C=C2\Oc3cc(OCC(=O)N4CCC[C@H]4C(=O)O)ccc3C2=O)cc1OC | . | 4%
-4% | -2.2% | Clc1ccc(-n2cnc3c(Cl)ncnc32)cc1Cl | . | .
-19% | -0.7% | Cc1ccccc1N1CCN(C(=S)c2ccccc2)CC1 | -12 | -3%
? | -0.5% | O=C(NCCCc1ccncc1)C1CCC(=O)N(CCc2cccc(F)c2)C1 (stereo not drawn) | . | 3%
3% | 0.9% | Cc1ccc(S(=O)(=O)NC2CCCC2)cc1C | 0 | -2%
0% | -1.0% | COCCNC(=O)c1sc2ncn(CC(=O)Nc3ccc(C)c(Cl)c3)c(=O)c2c1C | -5 | 5%
3% | -4.7% | Cc1ccc(N2C(=O)N(CC(=O)NCc3ccccc3Cl)C(=O)C2C)cc1 (stereo not drawn) | 4 | -2%
6% | -1.5% | CCOc1ccccc1NC(=O)COn1nnc2ccccc21 | 10 | -34%
1% | 1.1% | CC(C)(C)NC(=O)c1cc(-c2ccc3c(c2)OCO3)nc2ccccc12 | . | -13%
13% | 0.9% | CCN(CC)CCOC(=O)c1ccc(NC(=O)c2cn(-c3ccccc3)nc2-c2cccs2)cc1 | -5 | -35%
-4% | 0.2% | C[C@H](CO)N1C[C@H](C)[C@@H](CN(C)C(=O)NC2CCCCC2)Oc2ccc(NC(=O)Nc3ccc(C(F)(F)F)cc3)cc2C1=O | . | .
12% | ? | C[C@H](NC(=O)c1nc[nH]c1C(=O)N[C@@H](C)C(=O)OC(C)(C)C)C(=O)OC(C)(C)C | -1 | 0%
11% | 0.3% | CCn1c(=O)c(C(=O)NC(C)c2ccccc2)c(O)c2ccccc21 (stereo not drawn) | . | -1%
-22% | ? | COCCOC(=O)c1[nH]c2c(c1C)C(=O)CC(c1cc(OC)c(OC)c(OC)c1)C2 (stereo not drawn) | . | 25%
0% | -0.5% | O=C(c1cc(-c2ccncc2)nc2ccccc12)N1CCN(c2ncccn2)CC1 | . | .
9% | -0.6% | CN(CC(=O)N1CCN(c2ccccn2)CC1)S(=O)(=O)c1ccc(Br)cc1 | 8 | -6%
-10% | -1.9% | CC(NCc1ccc(N(C)C)cc1)C1CC2CCC1C2 (stereo not drawn) | -5 | 4%
-5% | 2.0% | CCCNC(=O)c1ccccc1C(=O)NCCC | 5 | 2%
3% | ? | NC(=O)NC(=O)COC(=O)c1ccc2noc(-c3ccccc3)c2c1 | . | -16%
0% | 10% | CCc1ccc(NC(=O)C2CCCN(S(C)(=O)=O)C2)cc1 (stereo not drawn) | 1 | 4%
4% | -1.1% | O=C(Nc1ccc2nsnc2c1)c1ccc2c(c1)OCO2 | 6 | -25%
16% | -0.1% | Cc1ccccc1-c1nnn(CC(=O)N2CCN(S(=O)(=O)c3ccc(Cl)cc3)CC2)n1 | -7 | 6%
27% | -0.2% | Cc1c(C(=O)Nc2ccccc2C(=O)N2CCCC2)cccc1[N+](=O)[O-] | -5 | 0%
? | ? | Cc1cc(C)c2c(n1)nn1c(NCCOCCO)cc(C)nc21 | ? | -2%
2% | 0.0% | O=C(c1sc2ccccc2c1Cl)N1CCN(c2ncccn2)CC1 | -9 | -10%
8% | 0.0% | Cc1ccc(CC(=O)NCCN2CCOCC2)cc1 | . | -1%
-3% | -0.3% | COCCNCCCCSc1ccc(Cl)cc1 | 5 | -4%
6% | 0.0% | CCC(=O)Nc1ccc(Cl)c(NC(=O)c2ccccc2OC)c1 | -18 | -12%
1% | -0.4% | Cc1cccc(NC(=O)NCCN2CCN(c3ccccc3)CC2)c1C | . | -1%
3% | 1.9% | CCCCC(=O)NCCc1cc2ccc(OC)cc2[nH]c1=O | -16 | -10%
-6% | -0.3% | Cc1nnc2n1N=CC=C(C(C)(C)C)S2 | -6 | -6%
? | ? | Cc1ccc2[nH]c3c(c2c1)SC(C)(C)CC3=O | -7 | 7%
-3% | -1.7% | COc1ccc(NC(=O)CN2CCc3ccccc3C2)c(OC)c1 | . | -23%
-12% | -1.7% | COc1ccc(C(C(=O)NC(C)(C)C)N(C(=O)Cn2nnc3ccccc32)c2ccc(C(C)=O)cc2)cc1O (stereo not drawn) | 5 | -8%
9% | 4.5% | CCOc1ccc(NC(=O)C2CCN(S(=O)(=O)CC)CC2)cc1 | . | 4%
-6% | -0.3% | COc1cc(N2C(=O)c3ccccc3C2=O)c(Cl)cc1C(=O)OCC(=O)NCc1ccco1 | 4 | -2%
8% | 6.0% | COc1cc(-c2nnc(NC(=O)c3ccco3)o2)cc(OC)c1OC | . | .
2% | 3.0% | O=c1c2oc3ccccc3c2ncn1Cc1ccccc1Cl | 8 | -20%
-12% | -3.0% | Cc1ccc(S(=O)(=O)Nc2ccc(C(=O)OCC(=O)N(CCC#N)c3ccccc3)cc2)cc1C | -7 | -2%
0% | -8.6% | CCNc1ccc(C(=O)OCC)cc1NC(=O)c1cccc(S(=O)(=O)N(C)c2ccccc2)c1 | -17 | 18%
9% | ? | CCNC(=O)N(C)C[C@H]1N[C@@](C)(C(=O)OC)[C@H]2C(=O)N(Cc3ccccc3)C(=O)[C@@H]12 | . | .
-8% | 0.8% | COc1cc(C2C3=C(CCCC3=O)Nc3[nH]n(-c4ccccc4)c(=O)c32)cc(OC)c1OC (stereo not drawn) | -7 | 1%
7% | 4.0% | Cc1cc(C[n+]2ncsc2N)c2ncccc2c1 | 9 | -1%
0% | -0.2% | Cc1ccc(NC(=O)Cn2ncn3c(cc4ccccc43)c2=O)c(C)c1 | . | 0%&2%
1% | 1.2% | N#Cc1ccccc1OCC(=O)OCCCOC(=O)COc1ccccc1C#N | . | 2%
12% | 0.4% | CCOc1ccc(-c2c(=O)n(O)c3ccccc3[n+]2[O-])cc1 | . | -37%
1% | -2.5% | COc1ccc(OC)c(Nc2nc(N)c([N+](=O)[O-])c(NC3CCCCC3)n2)c1 | . | -4%

New compounds follow.
Rango dissoc inh | Rango-impB inh | mol | GLA inh pH 4.5 | miR-21 FLuc
0% | -1.5% | CN(c1ccc(C(=O)N2CCN(Cc3ccccc3)CC2)cc1)S(=O)(=O)c1ccc(Cl)cc1 | . | 8%
8% | -6.4% | COC(=O)c1ccc(S(=O)(=O)N2CCCCCC2)n1C | -3 | -9%
28% | 2.2% | Cc1ccc(SCc2cc(=O)[nH]c(/N=C(\N)Nc3cccc4ccccc34)n2)cc1 | -4 | -2%
-2% | 3.9% | CC(C)(C)OC(=O)NCCCCCc1nnc(SCC(=O)Nc2cccc(Cl)c2)o1 | -24 | -1%
1% | 0.0% | COc1ccc(N=C2SC(C(=O)N3CCN(c4ccccc4)CC3)CC(=O)N2C)cc1 (stereo not drawn) | 3 | 0%
-24% | -2.6% | Brc1ccc(C2=Nc3cccc4cccc(c34)N2)o1 | -2 | 0%
-10% | -1.1% | CCCC1(c2ccccc2)NC(=O)N(CC(=O)Nc2cc(C)on2)C1=O (stereo not drawn) | -6 | 0%
12% | 0.8% | Cc1ccc2nc(SCC(=O)Nc3ccc(Cl)cc3)nc(=O)n2c1 | . | .

Some of these compounds in order of the Rango-impB inh value, smallest number first.
Rango dissoc inh | Rango-impB inh | mol | GLA inh pH 4.5 | miR-21 FLuc
-24% | -2.6% | Brc1ccc(C2=Nc3cccc4cccc(c34)N2)o1 | -2 | 0%
-10% | -1.1% | CCCC1(c2ccccc2)NC(=O)N(CC(=O)Nc2cc(C)on2)C1=O (stereo not drawn) | -6 | 0%
1% | 0.0% | COc1ccc(N=C2SC(C(=O)N3CCN(c4ccccc4)CC3)CC(=O)N2C)cc1 (stereo not drawn) | 3 | 0%
12% | 0.8% | Cc1ccc2nc(SCC(=O)Nc3ccc(Cl)cc3)nc(=O)n2c1 | . | .
28% | 2.2% | Cc1ccc(SCc2cc(=O)[nH]c(/N=C(\N)Nc3cccc4ccccc34)n2)cc1 | -4 | -2%

The list goes on:
Rango dissoc inh | Rango-impB inh | mol | GLA inh pH 4.5 | miR-21 FLuc
-14% | -0.2% | Cc1ccc(C)n1/N=C1/NC(=O)CS1 | -1 | -5%
-1% | -1.1% | O=C(NCCN1CCOCC1)/C(=C\c1ccc(F)cc1)NC(=O)c1ccccc1 | . | 0%
6% | 4.2% | O=C(O)CSc1nc(SCc2ccccc2Cl)nc2c1CCCC2 | -7 | -6%
-12% | 0.3% | O=C(O)CCCCCN1C(=O)C2CCCCC2C1=O (stereo not drawn) | -2 | -5%
-6% | -1.3% | CCOC(=O)c1ccccc1NC(=O)COC(=O)CSC(C)C(=O)Nc1cc(C)on1 (stereo not drawn) | . | -1%
0% | -1.3% | Cc1nn(CC(=O)N(C)C)c(=O)c2ccccc12 | 5 | -6%
-14% | -2.5% | COc1ccc(Cl)cc1C(=O)NNC(=O)C1COc2ccccc2O1 (stereo not drawn) | 2 | -7%
14% | -3.1% | C=CCNC(=O)COc1ccc(N(C)S(=O)(=O)c2ccc(NC(C)=O)cc2)cc1 | 10 | 1%
11% | -1.3% | O=C(CCC(=O)N1CCN(S(=O)(=O)c2ccc(Cl)cc2)CC1)Nc1cccc(Br)c1 | -12 | 7%
-7% | -1.8% | Cc1ccc2c(CC(=O)O)coc2c1C | 5 | -2%
-10% | 3.2% | CC12C(=O)N(c3ccccc3)C(=O)C1C(c1ccccc1)N1CCCN12 (stereo not drawn) | 0 | 5%
-5% | -2.2% | COc1ccc(C(=O)Nc2cc(C)nn2-c2nc3ccccc3[nH]2)c(OC)c1 | 4 | 3%
-14% | -3.1% | O=c1[nH]c2ccc(Cl)cc2c(-c2ccccc2)c1N1CCOCC1 | 5 | 8%
-20% | ? | C=CCn1c(SCc2cc(=O)n3ccsc3n2)nc2scc(C3CC3)c2c1=O | 0 | -11%
-3% | -0.1% | COc1cccc(C(=O)NNc2nc(C)cc(C)n2)c1 | 0 | -2%
-9% | 0.5% | C#CCOc1ccc(/C=C2/C(=O)N(c3cccc(C(=O)O)c3)N=C2C)cc1OC | . | 0%
-7% | 2.9% | Cn1c(=O)c(=O)n(C)c2cc(N3CCOCC3)c(NS(=O)(=O)c3ccc(Br)cc3)cc21 | . | -1%
-7% | 4.1% | Cc1ccc2cc(CN(C(=O)C3CCCO3)C3CCCCC3)c(=O)[nH]c2c1 (stereo not drawn) | 3 | -2%
-5% | 0.8% | CCOC(=O)c1c(-c2ccc(C)s2)csc1NC(=O)c1cccs1 | 8 | -6%
5% | 0.3% | CCOC(=O)Cn1c(=O)n(Cc2ccc(OC)cc2)c(=O)c2cccnc21 | . | -9%
-2% | 0.9% | CC1(C)NC(=O)N(CCCOc2ccccc2Br)C1=O | 7 | -37%
-11% | 6.7% | CC1=C[C@@H](C)[C@@H](c2ccc(C(F)(F)F)cc2)OC1=O | . | -5%
? | ? | CC(=O)Nc1ccc(N2C(C(C)=O)=NN(c3ccccc3)C2c2cccs2)cc1 (stereo not drawn) | 1 | -26%
